# Assay outcomes from PubChem.
# TAR Tat displ – HIV-1 TAR-Tat binding disruption. HIV-1 TAR RNA, Tat peptide displacement FRET; stronger effect = higher value. AID 1259389. 100,000 compounds, 0.6% hits. z-score (concentration not given with the values);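 note: score is relative to mean and SD of negative controls; some compounds called inactive have numbers as strong as hits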
# CDC25B-CDK2 inh – human CDC25B-CDK2/CyclinA binding inhibition | HTRF CDC25B-CDK2/CyclinA binding, anti-His/anti-Flag; stronger effect = higher value | z-score (no concentration beside the values) | 94,000 compounds, 0.72% hits | AID 1259370;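 note: score is relative to mean and SD of negative controls; strong numbers were not always called active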
# The depositor's hits bear a star; nt = no result given.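 Rule for the calls: active = z-score from 3 up in half or more of its runs; inactive = the rest.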 Hits appear at their usual frequency. About 0.94% of those tested had a hit in this group.
# Start of the data: the first 2 compounds, to show the layout:
SMILES,TAR Tat displ,CDC25B-CDK2 inh
Cc1c(C(=O)NC2CCCC2)oc2ccc(S(=O)(=O)N(C)C3CCCCC3)cc12,nt,-0.29
Cc1noc2ncnc(N3CCN(c4ccccc4F)CC3)c12,-0.25,nt

# All compounds of this part (from the top)
SMILES,TAR Tat displ,CDC25B-CDK2 inh
Cc1c(C(=O)NC2CCCC2)oc2ccc(S(=O)(=O)N(C)C3CCCCC3)cc12,nt,-0.29
Cc1noc2ncnc(N3CCN(c4ccccc4F)CC3)c12,-0.25,nt
Cc1nc(-c2ccc(C)c(S(=O)(=O)NC3CCCCC3)c2)cs1,0.89,nt
Cc1cnnn1-c1ccccc1,nt,-1.7
CCc1cc2c3c([nH]c2cc1S(=O)(=O)N1CCN(CC)CC1)CC(C)(C)CC3=O,0.17,nt
Cc1cc(NC(=O)C(C)n2c3ccccc3c3nc(=O)cc(C)n32)ccc1Br (centres undefined),-1.9,-0.03
COc1ccc(OC)c(-c2nc(C(N)=O)c3[nH]c(=O)n(-c4ccccc4OC)c3n2)c1,0.71,nt
COc1ccc(SCC(=O)Nc2sc3c(c2C(N)=O)CCC3)cc1,-0.31,nt
CC(C)NC(=O)NC1(C(F)(F)F)Oc2ccccc2O1,nt,-0.11
O=C(Nc1cc(F)c2nc(N3CCCC3)ccc2c1)C1CCCC1,1.4,nt
O=C1CCC(=O)N1C1c2ccccc2Oc2ccccc21,nt,-1.5
Cc1[nH]c(C)c(S(=O)(=O)N2CCCc3ccccc32)c1C(=O)N1CCCC1,-0.63,nt
CCC(CO)Nc1ncnc2c1cnn2-c1ccc(C)c(C)c1 (centres undefined),0.5,nt
COc1ccc(-c2cc(OC)c3cc(N)ccc3n2)cc1,-0.01,-1.8
COc1ccc(-c2[nH]nc3nc(-c4cccc(OC)c4)cc(C(=O)O)c23)cc1,2,nt
O=C1CNC23CCCCC2C(c2ccccc2O3)C1C(=O)N1CCOCC1 (centres undefined),nt,1.6
Cc1ccc(CNc2nc3ccccc3n3cnnc23)cc1,-1.1,-2.1
c1ccc(N2CCN(c3nc4ccccc4c4nncn34)CC2)cc1,0.34,nt
O=C1CN(Cc2ccc(Cl)cc2)S(=O)(=O)c2ccccc2N1Cc1ccccc1F,1.7,nt
Cc1ccc(C)c(NC2c3ncccc3C(=O)N2Cc2cccs2)c1 (centres undefined),-0.83,-2.2
COC(=O)CN1C(=O)C(C)(C)c2cc(S(=O)(=O)NC3CCCCC3)ccc21,0.51,nt
FC(F)(F)C1=CC(c2ccccc2)=NCCN1,0.79,-1.1
C/C(=N\Nc1ccccc1)c1sc(CCn2cccc(C(F)(F)F)c2=O)nc1C,nt,-0.75
CCOC(=O)c1c(C)[nH]c(C)c1S(=O)(=O)N(C)C1CCCCC1,-0.06,nt
Cn1c(=O)c2c(ncn2Cc2c(F)cccc2Cl)n(C)c1=O,nt,-0.82
CN(CCNC(=O)CN1C(=O)c2cccnc2Oc2ccc(Cl)cc21)C1CCCCC1,-0.48,nt
CC(Sc1ncccc1[N+](=O)[O-])C(=O)O (centres undefined),nt,-2.1
Cn1ccc2cc(S(=O)(=O)N3CCN(C(=O)Nc4ccc(F)c(Cl)c4)CC3)ccc21,0.31,nt
CCOC(=O)c1oc2c(c1C)-c1nn(Cc3c(F)cccc3Cl)cc1CC2,1.3,-0.33
Cn1c(=O)n(Cc2ccc(Cl)cc2)c(=O)c2c1nc1n2CCN1Cc1ccco1,2.9,nt
COCc1[nH]nc2c1C(c1c(F)cccc1Cl)C(C#N)=C(N)O2 (centres undefined),-0.36,-1.1
CC(C)(C)c1ccc(C(=O)Nc2cnc3sc4cc(F)ccc4n3c2=O)cc1,0.42,-0.15
COc1cccc(OCCCN2CCNCC2)c1,1.2,0.4
COc1cccc(OC)c1C(=O)NN,nt,-2.1
CCOC(=O)c1c(C)oc2cc(Cl)c(O)c(CN(C)C)c12,0.91,-1.4
CCOC(=O)/C(C#N)=C/c1ccc(C)o1,nt,-0.45
Cc1ccc(NC2=NC(c3ccc(C)cc3)n3c(nc(C)cc3=O)N2)cc1 (centres undefined),-0.01,0.28
CCOC(=O)c1c(C)oc2nc(C)nc(NC(C)C(=O)OCC)c12 (centres undefined),0.32,nt
Cc1cc(=O)oc2c1C(=O)CC(C)(C)C2,nt,-1.5
Nc1cccc(-c2csc(N)n2)c1,1.2,-0.39

# As entered above.
# Result of COc1cccc(OC)c1C(=O)NN in CDC25B-CDK2 inh: -2.1
# Result of Cn1ccc2cc(S(=O)(=O)N3CCN(C(=O)Nc4ccc(F)c(Cl)c4)CC3)ccc21 in TAR Tat displ: 0.31
# Result of CCOC(=O)c1c(C)oc2nc(C)nc(NC(C)C(=O)OCC)c12 (centres undefined) in TAR Tat displ: 0.32

# Additional structures
SMILES,TAR Tat displ,CDC25B-CDK2 inh
CCOc1ccc(OCC)c(NC(=O)CCS(=O)(=O)c2ccc3c(c2)oc(=O)n3C)c1,0.3,nt
C=C(C)Cn1c(SCCC(=O)O)nc2c1c(=O)[nH]c(=O)n2C,nt,-0.9
CCCc1nc(SCC(=O)N2CCCCC2)c2c(=O)n(C)c(=O)n(C)c2n1,0.58,nt
CN1CCN(c2ccc(NC(=O)Nc3ccc(C(F)(F)F)cc3)cc2)CC1,nt,-2
O=C(NCCCN1CCCC1)C1CCCN(c2nc3cccnc3s2)C1 (centres undefined),-1.1,nt
CC1=C(c2ccc(C(C)C)cc2)S(=O)(=O)N(Cc2ccc(C(=O)N3CCOCC3)cc2)C1=O,0.76,nt
COc1ccc(Cl)cc1NC(=O)NC(C)c1c(-n2cccc2)sc2c1CCCC2 (centres undefined),1.1,-2.1
FC(F)(F)/C(=N\P(=S)(Nc1ccc(Cl)cc1)Nc1ccc(Cl)cc1)Nc1ccc(Cl)cc1,nt,0.48
COc1cccc(/C=N/c2c(-c3ccccc3)c(C(F)(F)F)nn2C)c1OC,nt,-3.7
Fc1ccccc1N1CCN(C2CCN(Cc3ccncc3)CC2)CC1,1.1,0
O=C(NCC(c1cccs1)N1CCOCC1)c1cc(-c2cccs2)on1 (centres undefined),0.43,0.47
CCCCN(C)c1ccc2nnc(CCC(=O)O)n2n1,-0.61,-1.3
O=C(O)c1noc2ncnc(N3CCCCC3)c12,0.05,-1.7
CN(CCNS(=O)(=O)c1ccc2c(c1)C(C)(C)C(=O)N2C)Cc1ccccc1,1.1,nt
O=S(=O)(c1ccc(Cl)cc1)N1CCN(c2cccc(Cl)c2)CC1,1.1,-0.63
Cn1cccc1Cc1nnc(SCC(=O)Nc2ccc3c(c2)OCO3)n1-c1ccc(Cl)cc1,-0.37,0.07
COc1ccc(/C=C/c2nc(-c3ccc(C)cc3)no2)cc1OC,0.5,-0.46
CCCCOc1ccc(S(=O)(=O)n2nnc3ccccc32)cc1,nt,-1.1
CCCCCCn1c(CN2CCCC(C)C2)nc2c1c(=O)n(C)c(=O)n2C (centres undefined),0.85,-0.47
CN(Cc1ccccc1)C(=O)c1ccc([N+](=O)[O-])o1,0.64,-1.9
Cc1cc(NCCc2ccccc2)n2nc(C)c(-c3ccc(F)cc3)c2n1,0.5,-0.42
Clc1ccc(OCc2nc(CSc3ccccn3)no2)c(Cl)c1,nt,-0.57
C#CCNc1cc(-c2ccccc2)nc2nncn12,-0.06,-0.81
O=C(Nc1nc(-c2nc3ccccc3s2)cs1)C1CC1,1.7,nt
COc1ccc(OC)c(CN2CCN(Cc3ccc(Br)cc3)CC2)c1,-0.65,1.2
CC(=O)N1CCc2cc(S(=O)(=O)N3CCC(N4CCCCC4)CC3)ccc21,nt,-1.2
O=C(COc1ccc(Cl)cc1)Nc1ccc(OCc2cc(=O)n3c4c(sc3n2)CCCC4)cc1,-0.02,5.8
Cc1n(CC(=O)c2ccc(F)cc2)c2ccccc2[n+]1C,2.3,-1.2
COc1ccc(-c2csc3ncnc(N4CCC(C)CC4)c23)cc1,0.44,nt
Cc1ccc(CSc2nc3c(c(=O)[nH]2)C(c2ccc(C)cc2C)CC(=O)N3)cc1 (centres undefined),1.8,0.07
CCOc1ccc(-n2c(CSc3nc(C)cc(C)n3)nnc2SC(C)C(=O)OC)cc1 (centres undefined),0.61,-0.97
Cc1ccc(CN(C(=O)c2oc3c(C)c(C)ccc3c2C)C2CCS(=O)(=O)C2)o1 (centres undefined),2.4,-2.5
CCCCC(=O)OC1=C(C(=O)OC)N(C(C)C)S(=O)(=O)c2ccccc21,-0.37,-0.67
O=c1c2nccnc2nc(SCc2ccc(F)cc2)n1Cc1ccccc1,-0.37,-0.51
COc1ccccc1OCc1nnc2sc(-c3ccccc3)nn12,1.9,0.76
Cc1cn2c(=O)cc(CSc3ccccc3NC(=O)C(C)C)nc2s1,0.39,nt
COc1ccc(CN=C2NS(=O)(=O)C(c3ccccc3)=C2C)c(OC)c1,0.08,-1.2
N/C(=N\OC(=O)c1cccc(Cl)c1)c1cccc(C(F)(F)F)c1,nt,-0.58
Cc1cc2oc3c(c(=O)c2cc1C)C(c1ccc(F)cc1)N(CCCN(C)C)C3=O (centres undefined),-0.24,-0.98
Cc1c(N)cccc1-c1nc2ncccc2o1,0.54,-1.6

# As a working copy, six of the compounds above:
SMILES,TAR Tat displ,CDC25B-CDK2 inh
COc1ccc(OC)c(CN2CCN(Cc3ccc(Br)cc3)CC2)c1,-0.65,1.2
CC(=O)N1CCc2cc(S(=O)(=O)N3CCC(N4CCCCC4)CC3)ccc21,nt,-1.2
O=C(COc1ccc(Cl)cc1)Nc1ccc(OCc2cc(=O)n3c4c(sc3n2)CCCC4)cc1,-0.02,5.8
Cc1n(CC(=O)c2ccc(F)cc2)c2ccccc2[n+]1C,2.3,-1.2
COc1ccc(-c2csc3ncnc(N4CCC(C)CC4)c23)cc1,0.44,nt
Cc1ccc(CSc2nc3c(c(=O)[nH]2)C(c2ccc(C)cc2C)CC(=O)N3)cc1 (centres undefined),1.8,0.07

# Carrying on.
SMILES,TAR Tat displ,CDC25B-CDK2 inh
c1ccc(CNc2ccc3nncn3n2)cc1,-1.3,-2.5
COc1c(NC(=O)N2CCCCC2)csc1Cl,nt,-1.6
O=C(CSc1nc2ncccc2c(=O)n1CC1CCCO1)Nc1ccccc1F (centres undefined),2,-1.6
CC(C)NC(=O)COCc1cc(-c2ccc3c(c2)OCO3)on1,-0.47,nt
CC(C)c1ccc2c(ccc[n+]2C)c1,nt,-0.92
CCS(=O)(=O)N1CCC2(CC1)OC(=O)C(C)=C2C(=O)N1CCN(c2ccccc2)CC1,0.16,nt
CC1(C)CC2(CCCN(Cc3nc4c(c(=O)[nH]3)C3(CCCCC3)Cc3ccccc3-4)C2)CCO1 (centres undefined),0.55,0.57
N#Cc1c2c(c(NCCCO)n3c1nc1ccccc13)CCC2,-3.5,-2.5
COc1ccc(Cc2nc3c4cnn(-c5cccc(Br)c5)c4ncn3n2)cc1OC,0.41,1.2
COc1cc(OC)c(C2C(C#N)=C(N)OC3=C2C(=O)CC(C)(C)C3)cc1OC (centres undefined),nt,-0.83
COc1ccc(Oc2c(C(F)(F)F)oc3cc(OCC(=O)NC4CCCCC4)ccc3c2=O)cc1,0.43,-2.8
CC(C)C[C@H]1C(=O)N2CCC[C@H]2[C@]2(O)O[C@](NC(=O)[C@@H]3C=C4c5cccc6[nH]c(Br)c(c56)C[C@H]4N(C)C3)(C(C)C)C(=O)N12,1.3,2.2
CC1CCCCN1c1ncnc2onc(-c3cc(F)cc(F)c3)c12 (centres undefined),-0.33,nt
Cc1ccc2cc(-c3noc(-c4ccco4)n3)c(=O)[nH]c2c1,0.78,2
CN(C(=O)NCc1noc2ccccc12)C1CCCCC1,0.35,nt
CCSCCOC(=O)C1=C(C)NC2=C(C(=O)C(C(=O)OC)C(C)C2)C1c1ccc(C(C)C)cc1 (centres undefined),1.4,-1.4
CCOc1ccc(-c2nc(-c3ccc(-c4ccccc4)nc3OC)no2)cc1,1.2,-1.1
O=C(c1ccc(N2CCOc3ccccc32)s1)N1CCN(c2ccccn2)CC1,0.08,nt
O=S(=O)(CCN(C1CC1)S(=O)(=O)c1ccc(C2CCCCC2)cc1)N1CCNCC1,2.9,nt
CCCCN1C2=NCCCN2c2cc(C)c(C)cc21,nt,-0.86
Cc1sc(N)nc1-c1ccc(F)c(F)c1,nt,-1.7
NC(=O)C1CCN(C(=O)C2CC(c3ccc(Cl)cc3)=NO2)CC1 (centres undefined),-0.83,-2.7
Cc1c(C(=O)Nc2onc3c2CCCC3)oc2ccccc12,1.5,-2
COc1ccc(C2=NOC(C(=O)N3CCN(C(=O)c4ccco4)CC3)C2)cc1 (centres undefined),nt,-1.1
CCCCN(CC)CCNc1ncnc2onc(-c3cc(F)cc(F)c3)c12,1.3,nt
COc1ccccc1N1CCN(CN2C(=O)C(=O)c3cc(Br)ccc32)CC1,nt,0.01
OCCN1CCN(c2ncnc3c2cnn3-c2ccc(F)cc2)CC1,0.99,nt
CCOC(=O)c1c(S(=O)(=O)NCc2cccs2)c(C)n(C)c1C,-0.07,nt
CC(N)=NCCc1ccncc1,nt,-1.8
CCOC(=O)N1CCN(C(=O)CN2C(=O)CC(C)(C)Sc3ccccc32)CC1,-3.5,0.16
O=C1/C(=C/c2ccco2)CC/C1=C\c1ccco1,nt,-1.2
CS(=O)(=O)N1CCCN(c2nc3cc(Cl)ccc3n3cccc23)CC1,0.27,-1.3
CCc1nc2nc3c(c(=O)n2[nH]1)CCC3,3.4,nt
Cc1cc(-c2ccc(S(=O)(=O)N3CCCCC3)cc2)on1,0.17,nt
CCCn1c(CCC(=O)Nc2ccc3c(c2)OCCO3)nc2cccnc21,-4.7,0.47
CCOC(=O)c1cc(C#N)c(Sc2n[nH]c(=O)n2C(C)C)nc1C(F)(F)F,nt,-0.7
Clc1ccccc1/C=C/c1nn2c(-c3cccnc3)nnc2s1,-0.55,-0.23
Cn1cc(C(=O)n2ccnc2)c(=O)c2cc(S(=O)(=O)N3CCCCCC3)ccc21,nt,-0.86
CC(C)c1ccc2c(c1)-c1ccccc1S(=O)(=O)N2CC(N)=O,0.02,-1.3
CSc1nnc(NC(=O)Cc2csc(-c3ccccc3)n2)s1,1,-6.9
